# ALR H2O2 inh = blocks human ALR sulfhydryl oxidase activity; hit rate 3.8% among 290,000; inhibition, % (concentration not given with the values); purified ALR, DTT oxidation, H2O2 HRP-luminol luminescence; AID 485317;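 active means mean and each replicate at 75% or more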;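 further: stock transfer was 7.5 nL into about 7.5 µL; 0% = neutral wells and 100% = wells with inactivated enzyme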
# rRNA inh HTS = inhibits bacterial ribosomal RNA function over humanized ribosomes | E. coli WT GFP vs humanized-ribosome RFP mutants, fluorescence, 24 h; active compounds read low; DMSO median 0, no signal -100 | GFP signal change (wild-type ribosome), % (no concentration beside the values) | hit rate 1.6% among 350,000;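 active means significant combined selectivity score with lowered wild-type GFP, culture density cut under 30%, mutant RFP and density less affected; inactive means any of these conditions unmet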; further: one replicate is shown; some compounds called inactive have numbers as strong as hits
# UCH37 inh = human UCH37 deubiquitinating enzyme inhibition | Q9Y5K5 | purified proteasome/UCH37, Ub-AMC cleavage fluorescence | inhibition, % (test concentration not listed) | hit rate 0.33% among 330,000 | AID 588478;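 active means mean of two replicates above 20%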;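 further: 0% = compound-free wells with enzyme and 100% = wells lacking proteasome; stock transfer was 100 nL into about 20 µL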
#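 Material: Human UCH37 enzyme supplied as purified proteasome complex | Schedule: 30 min compound-proteasome preincubation then 25 min substrate reaction, room temperature | Detection: AMC fluorescence from Ub-AMC cleavage, excitation 355 nm, emission 460 nm | Benchmarks: Wells without proteasome as full block, compound-free enzyme plus substrate as uninhibited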
# FGF22 binding = binders of recombinant human FGF22 by thermal shift; Q9HCT0; SYPRO orange fluorescence; percent of sucrose octasulfate shift, DMSO zero; calls only at 9.99 µM; hit rate 1.5% among 340,000;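 active means melting point raised past a set limit in the mean and every replicate; three in four hits are not shown here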
# Target sequence (Q9HCT0 whole entry, looked up): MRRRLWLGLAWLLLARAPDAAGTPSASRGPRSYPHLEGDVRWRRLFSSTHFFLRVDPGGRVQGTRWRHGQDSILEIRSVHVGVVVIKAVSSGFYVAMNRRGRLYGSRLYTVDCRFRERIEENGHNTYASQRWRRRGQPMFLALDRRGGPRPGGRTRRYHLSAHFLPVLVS
# Beta2AR agonist = human beta-2 adrenergic receptor agonism by FAP; P07550; Am2.2-beta2AR cells, FAP receptor internalization, flow cytometry; reference of the scale not given here; response, % (concentration not given with the values); hit rate 0.43% among 340,000;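 active means response above a set limit, near 3 SD of response in nonfluorescent compounds, cut at about 42% in these data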;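 further: stock transfer was 100 nL into about 11 µL; a reference agonist was the positive control; negative values mostly stem from fluorescent compounds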
# Target sequence (P07550 whole entry, looked up): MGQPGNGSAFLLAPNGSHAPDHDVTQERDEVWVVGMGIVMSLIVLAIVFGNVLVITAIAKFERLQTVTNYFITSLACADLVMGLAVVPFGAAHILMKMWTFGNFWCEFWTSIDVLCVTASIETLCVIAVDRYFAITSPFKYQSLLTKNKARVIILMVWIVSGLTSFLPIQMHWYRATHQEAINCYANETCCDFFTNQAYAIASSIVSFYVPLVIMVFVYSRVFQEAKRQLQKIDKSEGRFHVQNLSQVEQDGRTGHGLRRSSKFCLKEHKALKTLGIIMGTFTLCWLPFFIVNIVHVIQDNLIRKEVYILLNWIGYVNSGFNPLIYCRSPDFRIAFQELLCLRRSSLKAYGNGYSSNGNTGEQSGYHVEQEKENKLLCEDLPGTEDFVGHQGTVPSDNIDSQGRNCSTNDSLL
# HNF4A DNA FP = change in binding of human HNF4 alpha to DNA | P41235 | HNF4a-FITC DNA binding, fluorescence polarization, 1 h | activity change, % at 10 µM | hit rate 0.3% among 360,000; in the data active means activity change above about 30%, passing the limit was not always enough;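 further: controls were the assay level and a saturating level of protein; the project sought stronger binding though the title names inhibitors; some compounds called inactive have numbers as strong as hits; positive values seem to mean higher polarization but the record does not say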
# Target sequence (P41235 whole entry, looked up): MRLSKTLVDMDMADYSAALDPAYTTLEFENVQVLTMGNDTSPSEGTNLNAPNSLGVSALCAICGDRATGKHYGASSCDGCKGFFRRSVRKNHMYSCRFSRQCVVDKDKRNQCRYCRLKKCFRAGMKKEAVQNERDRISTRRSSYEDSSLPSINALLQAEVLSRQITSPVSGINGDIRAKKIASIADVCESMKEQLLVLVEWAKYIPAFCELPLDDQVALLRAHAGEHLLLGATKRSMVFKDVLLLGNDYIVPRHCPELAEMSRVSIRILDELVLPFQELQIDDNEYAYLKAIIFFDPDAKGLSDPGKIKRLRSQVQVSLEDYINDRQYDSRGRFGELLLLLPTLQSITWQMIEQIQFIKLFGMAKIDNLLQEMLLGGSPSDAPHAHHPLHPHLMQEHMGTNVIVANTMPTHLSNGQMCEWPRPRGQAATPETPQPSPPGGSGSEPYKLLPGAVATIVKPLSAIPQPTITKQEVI
# E coli growth = blocks Escherichia coli growth | OD600, 23 h; active compounds read low | OD600 absorbance (test concentration not listed) | hit rate 0.21% among 330,000;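 active means OD600 absorbance below the run mean of sample wells minus 3.6 SD, in any replicate, cut at about 0.56 in these data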;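 further: stock transfer was 300 nL into about 60 µL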
# rRNA inh HTS OD600 = also measured in rRNA inh HTS; calls as there; OD600 change, %; measured here: OD600 growth;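 optical density of the mix in the first replicate; 0 = DMSO median and -100 = no signal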
# rRNA inh HTS RFP = also measured in rRNA inh HTS; calls as there; RFP signal change, %; measured here: RFP humanized mutant strains;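 first replicate; 0 = DMSO median and -100 = no signal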
# Active calls of the source: *; i = inactive; nt = no result given. Not all compounds are listed. The share of hits here may be higher or lower than overall.
SMILES,ALR H2O2 inh,rRNA inh HTS,rRNA inh HTS OD600,rRNA inh HTS RFP,UCH37 inh,FGF22 binding,Beta2AR agonist,HNF4A DNA FP,E coli growth
N#Cc1ccccc1NC(=O)CSc1nnc(-c2ccncc2)o1,-7,7,5,1.4,4.5,i,-11,-0.1,0.69
Cc1cc(C)c2c3c(sc2n1)C(=O)N(c1ccccc1C)CC(=O)N3,-5,0,1,0.5,0.8,i,-1,-1.5,0.63
COc1ccc(NC(=O)CN(C)C2=NS(=O)(=O)c3ccccc32)cc1Cl,nt,8,18,0.0,4.4,i,3,3.0,0.68
NC(=O)CC(NC(=O)Cc1ccc(Cl)cc1)c1ccc(NCCCN2CCCC2=O)c([N+](=O)[O-])c1 (stereo unspecified),0,-3,7,-5.4,5.5,i,26,-2.9,0.66
O=C(C1CCCCC1)N1C[C@H](n2cc(-c3ccc(F)cc3)nn2)[C@@H](O)C[C@@H]1c1ccc(Cl)cc1,nt,5,1,3.4,nt,nt,nt,0.8,nt
O=C(Cn1nnc(-c2ccccc2-n2cnnn2)n1)N1CCCCC1,-7,nt,nt,nt,-0.9,nt,-4,-0.9,0.74
O=C(Nc1ccc(NC(=O)c2cccs2)cc1)c1ccco1,-3,nt,nt,nt,-8.7,nt,-1,-1.8,0.76
O=C(CNC(=O)c1ccccc1)NC1(C(=O)NC2CCCCC2)CCCCC1,-1,11,0,-0.1,1.4,i,1,-0.4,0.74
CCOC(=O)CSc1nnc(-c2ccccc2)c(-c2ccccc2)n1,7,-6,-23,1.5,0.8,i,-3,2.6,0.66
O=c1cc(-c2ccco2)nc(SCc2cccc(Cl)c2)[nH]1,nt,13,4,3.7,-1.0,i,3,-3.3,0.7
O=C(NCc1cccnc1)NC1(C(F)(F)F)Oc2ccccc2O1,nt,nt,nt,nt,3.0,nt,-9,2.9,0.73
COc1cc(S(=O)(=O)N2CCCCCC2)ccc1Cl,-16,nt,nt,nt,3.8,nt,2,1.0,0.72

# Next section; it opens with the 3 that closed the last part.
SMILES,ALR H2O2 inh,rRNA inh HTS,rRNA inh HTS OD600,rRNA inh HTS RFP,UCH37 inh,FGF22 binding,Beta2AR agonist,HNF4A DNA FP,E coli growth
O=c1cc(-c2ccco2)nc(SCc2cccc(Cl)c2)[nH]1,nt,13,4,3.7,-1.0,i,3,-3.3,0.7
O=C(NCc1cccnc1)NC1(C(F)(F)F)Oc2ccccc2O1,nt,nt,nt,nt,3.0,nt,-9,2.9,0.73
COc1cc(S(=O)(=O)N2CCCCCC2)ccc1Cl,-16,nt,nt,nt,3.8,nt,2,1.0,0.72
Cc1ccc(-c2nc3cc(C)c(Br)c(C)n3c2CC(C)(C)C)cc1,nt,21,24,4.9,nt,i,nt,-0.1,nt
O=C(C1CCCN(Cc2ccccc2[N+](=O)[O-])C1)N1CCCC1 (stereo unspecified),-7,7,12,4.6,2.4,i,-2,1.4,0.68
COc1ccccc1Nc1nnc(SCC(=O)NC2CC2)s1,8,2,2,-1.8,5.3,i,4,0.7,0.65
O=C(CCCC(=O)OCC(=O)c1ccc(F)cc1)Nc1cc(C(F)(F)F)ccc1Cl,-2,nt,nt,nt,2.8,nt,0,3.6,0.72
COc1cccc(CNC(=O)CCC2CCCN(C(=O)c3cccc(Cl)c3)C2)c1 (stereo unspecified),-12,-9,-10,-1.5,1.1,nt,-2,-1.8,0.73
c1ccc2c(c1)Nc1cc3ccccc3cc1O2,nt,27,20,0.6,nt,i,5,0.4,nt
O=C(COC(=O)c1cc(S(=O)(=O)N2CCOCC2)ccc1F)NCc1ccc2c(c1)OCO2,5,0,10,1.2,2.8,i,9,1.6,0.7
COc1ccc(/C=N/OCC(=O)N2CCCC2)c(OC)c1,14,13,7,1.8,nt,i,4,-0.8,nt
O=C(NCCN1CCN(S(=O)(=O)c2ccc(F)cc2)CC1)C(=O)NCc1ccccc1,-1,5,5,-2.0,3.5,i,1,3.6,0.68
CN1CCN(S(=O)(=O)c2ccc(F)cc2)CC1,nt,3,16,0.9,nt,i,nt,-0.2,nt
CCCc1c(-c2ccc(Cl)cc2)ncn1Cc1ccccc1OC,nt,-33,-79,-20,nt,i,nt,-5.2,nt
Cc1cc(C)cc(NC(=O)c2cc(Cl)sc2Cl)c1,3,nt,nt,nt,2.0,nt,-4,-2.0,0.67
CCOC(=O)C1CCN(c2ncnc3c2oc2ccc(Br)cc23)CC1,-13,-15,2,8.4,-5.3,i,5,0.1,0.7
CC(C)OCCCn1c(SC(C)C(=O)NC2CC2)nc2ccccc2c1=O (stereo unspecified),nt,-1,5,-2.8,-2.7,i,4,1.0,0.69
Cc1cc(=O)oc2c(N)c(O)ccc12,97*,8,4,2.3,2.9,i,-2,3.7,0.68
Cc1ccc(NC(=O)c2ccc3ccccc3n2)cc1S(=O)(=O)N1CCOCC1,-1,10,12,-7.0,4.7,i,2,3.0,0.69
CC(C)CC(=O)Nc1cccc2c1C(=O)N(c1ccccc1)C2=O,-17,nt,nt,nt,-6.1,nt,-6,0.6,0.71
CN1CCN(C(=O)c2ccc(C3SCC(=O)N3Cc3ccco3)cc2)CC1 (stereo unspecified),-11,nt,nt,nt,5.3,nt,-6,-1.5,0.72
CCn1c(CN2CCOCC2)nnc1SCC(=O)Nc1ccccc1Cl,nt,-1,7,0.0,nt,i,0,2.2,nt
CNC(=S)N1CCN(c2nc(-c3ccc(Cl)cc3)cs2)CC1,-13,-25*,-20*,-5.0*,-1.7,i,13,3.3,0.68
Cc1cccc(OCCCCN2CCNCC2)c1,23,18,1,-0.3,3.1,i,1,0.2,0.69
COC(=O)c1ccc(Cl)c(NC(=O)c2cccc([N+](=O)[O-])c2C)c1,-13,-1,-4,-2.5,1.5,i,5,-3.7,0.65
O=C1C(=Cc2cccn2-c2ccccc2)C(=O)c2ccccc21,-1,nt,nt,nt,6.0,nt,-3,15,0.64
N/C(=N\OC(=O)COc1ccc2ccccc2c1Br)c1ccccn1,-5,-45,-64,-2.3,1.5,i,-12,-4.6,0.65
CCOC(=O)N1CCN(Cc2nc(N)nc(Nc3ccc(Oc4ccccc4)cc3)n2)CC1,1,nt,nt,nt,6.2,nt,12,8.1,0.65
N#C/C(C(=O)N1CCOCC1)=c1/s/c(=C\c2ccccn2)c(=O)n1-c1ccccc1,-9,6,6,3.6,nt,i,4,-0.4,nt
O=C(O)c1cn(-c2ccc(F)c(F)c2)c2c(F)c(F)c(F)c(F)c2c1=O,16,nt,nt,nt,4.3,nt,5,1.6,0.58
COc1ccc(Cl)cc1NC(=S)N(CCN1CCOCC1)C1CCN(C(C)=O)CC1,-4,-16,-11,-0.8,-0.6,i,2,1.5,0.67
COc1ccc(CCNC(=O)CCCOc2cc(=O)n(C)c3ccccc23)cc1OC,-2,1,-3,-0.3,3.4,i,-6,-1.3,0.7
COCCCN1C(=O)C(O)=C(C(C)=O)C1c1ccccn1 (stereo unspecified),-9,nt,nt,nt,2.5,nt,-2,0.6,0.72
CCN(CC)CCOc1ccc2c(c1)C(=NNC(=O)c1ccccn1)c1cc(OCCN(CC)CC)ccc1-2,6,-2,7,-2.8,9.0,i,24,59,0.7
O=[N+]([O-])C1C(c2ccccc2)=NOC1c1ccccc1O (stereo unspecified),3,-3,-3,1.9,3.4,i,-6,-1.3,0.67
CCOc1ccccc1C(=O)N1CCOCC1,-2,nt,nt,nt,-1.4,nt,2,-1.1,0.72
O=C(COC(=O)[C@@H]1CC(O)CN1S(=O)(=O)c1ccc(Cl)c(Cl)c1)NC(=O)NCc1ccccc1 (stereo partly specified),6,-16,-41,-1.8,-0.9,nt,-15,4.7,0.71
O=C(NCc1ccccc1)c1onc(CSc2ccccc2)c1C(=O)NCc1ccccc1,-22,2,12,1.4,-0.3,i,3,3.9,0.71
COc1cc(C)c(CN2CCN(C(=O)CCC(=O)c3ccc(C)s3)CC2)cc1OC,nt,4,2,0.9,nt,i,nt,-0.4,nt
Cc1cc([N+](=O)[O-])nn1CCCC(=O)Nc1cc(Cl)ccc1Cl,-10,-57,-76,-28,2.5,i,-3,1.1,0.67
CCCNc1[nH]c(=O)n(C)c(=O)c1N=O,-5,nt,nt,nt,3.0,nt,-1,-1.2,0.64
COC(=O)COc1ccc(S(=O)(=O)N2CCc3ccccc3C2)cc1C,-7,-26*,-11*,-1.0*,3.6,nt,5,-4.0,0.7
CC(C)(C)OC(=O)N1CCC[C@H]1C(=O)N1CCC[C@H]1C(=O)NCc1ccncc1,nt,8,14,1.0,nt,i,nt,-4.5,nt
CN(C)S(=O)(=O)c1ccc(C(=O)Oc2cc(=O)[nH]c3ccccc23)cc1,-10,nt,nt,nt,0.8,nt,7,2.1,0.73
COC(=O)[C@@]12C[C@@H](CC(=O)N3CCCCC3)C(=O)N(Cc3ccco3)C1=CCC(C)(C)C2,nt,1,-2,-0.8,nt,i,nt,-0.5,nt
CN(Cc1ccccc1)S(=O)(=O)c1ccccc1[N+](=O)[O-],0,-15,-21,-2.8,2.7,i,-3,-3.9,0.71
COC(=O)c1ccc(SCc2cnc(Cl)s2)cc1,-14,-2,-2,-3.9,3.9,nt,-2,0.2,0.7
COc1ccc(-c2nc(-c3ccccc3)c(-c3cc([N+](=O)[O-])ccc3C)[nH]2)cc1O,62,nt,nt,nt,-3.7,nt,4,1.0,0.77
O=C(Nc1c(S(=O)(=O)c2ccc(Cl)cc2)csc1Br)c1ccccc1Cl,nt,-26*,-13*,-2.3*,nt,i,2,3.0,nt
CC(C)Oc1cccc(C(=O)C2CCCN(C(=O)c3ccc4c(c3)OCO4)C2)c1 (stereo unspecified),-1,0,-23,1.1,3.8,i,-2,-3.6,0.71
C#CC[N+](C)(C)CC#Cc1ccccc1,-7,21,21,-1.0,5.4,nt,-7,1.1,0.69

# Taken from above:
# `CN(C)S(=O)(=O)c1ccc(C(=O)Oc2cc(=O)[nH]c3ccccc23)cc1` @ UCH37 inh: 0.8
# `COc1ccc(-c2nc(-c3ccccc3)c(-c3cc([N+](=O)[O-])ccc3C)[nH]2)cc1O` @ HNF4A DNA FP: 1.0
# `C#CC[N+](C)(C)CC#Cc1ccccc1` @ UCH37 inh: 5.4
# `COC(=O)[C@@]12C[C@@H](CC(=O)N3CCCCC3)C(=O)N(Cc3ccco3)C1=CCC(C)(C)C2` @ rRNA inh HTS: 1
# `CCCNc1[nH]c(=O)n(C)c(=O)c1N=O` @ ALR H2O2 inh: -5
# `CN(Cc1ccccc1)S(=O)(=O)c1ccccc1[N+](=O)[O-]` @ rRNA inh HTS: -15

# Additional compounds follow:
SMILES,ALR H2O2 inh,rRNA inh HTS,rRNA inh HTS OD600,rRNA inh HTS RFP,UCH37 inh,FGF22 binding,Beta2AR agonist,HNF4A DNA FP,E coli growth
C=CCSc1nnc(NC(=O)COc2ccc3ccccc3c2)s1,-5,0,8,-1.3,1.0,i,-5,-0.1,0.68
COc1ccc(NC(=O)COC(=O)c2ccco2)c([N+](=O)[O-])c1,-16,13,9,-0.7,1.3,i,-5,-1.0,0.72
O=C(O)CC1(C(=O)O)CCCC1,nt,8,5,-8.3,0.9,i,-6,0.5,0.66
CCOc1ccc2nc(N(CCN(C)C)C(=O)c3ccc4ccccc4c3)sc2c1,15,-29*,-1.9*,4.2*,1.8,i,2,1.8,0.65
